Source: PubChem (several laboratories)
Ecoli growth – E. coli growth inhibition, primary screen, OD600; Escherichia coli growth, 23 h; hits give low values; OD600 absorbance (concentration not given with the values); hit rate 0.21% among 330,000;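 active = OD600 absorbance below the run mean of sample wells minus 3.6 SD, in any replicate, cut at about 0.56 in these data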;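 also: stock transfer was 300 nL into about 60 µL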
Bfl-1 A1 inh – caspase 3/7 activation in MEF A1-2A-BIM cells, primary screen, A1 inhibitor project, cell-based, luminescence, HTS; Caspase-Glo 3/7 luminescence, 3 h; percent of clofoctol response, vehicle zero; caspase activation, % (no concentration beside the values); hit rate 0.066% among 330,000; AID 2462, 2010;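 active = over half of replicate activation scores above 10%, or exactly half above 10 with the replicate mean above 10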;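 also: wells of about 30 µL received 50 nL stock; many hits fall short of the cut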
AF4-AF9 inh – inhibitors of AF4 peptide binding to AF9, primary screen, biochemical, AlphaScreen, biotin-AF4 peptide, FLAG-AF9, single point; Protein AF-9 (Homo sapiens), P42568; inhibition, % at 10 µM; hit rate 0.47% among 350,000;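 active = every replicate reaching a set inhibition limit, whatever the replicate mean, cut at about 25% in these data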;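 also: 0% = plate neutral control median and 100% = total signal loss; the record names both 10 and 1 µM as test concentration; the first replicate is given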
Target sequence (P42568 whole entry, looked up): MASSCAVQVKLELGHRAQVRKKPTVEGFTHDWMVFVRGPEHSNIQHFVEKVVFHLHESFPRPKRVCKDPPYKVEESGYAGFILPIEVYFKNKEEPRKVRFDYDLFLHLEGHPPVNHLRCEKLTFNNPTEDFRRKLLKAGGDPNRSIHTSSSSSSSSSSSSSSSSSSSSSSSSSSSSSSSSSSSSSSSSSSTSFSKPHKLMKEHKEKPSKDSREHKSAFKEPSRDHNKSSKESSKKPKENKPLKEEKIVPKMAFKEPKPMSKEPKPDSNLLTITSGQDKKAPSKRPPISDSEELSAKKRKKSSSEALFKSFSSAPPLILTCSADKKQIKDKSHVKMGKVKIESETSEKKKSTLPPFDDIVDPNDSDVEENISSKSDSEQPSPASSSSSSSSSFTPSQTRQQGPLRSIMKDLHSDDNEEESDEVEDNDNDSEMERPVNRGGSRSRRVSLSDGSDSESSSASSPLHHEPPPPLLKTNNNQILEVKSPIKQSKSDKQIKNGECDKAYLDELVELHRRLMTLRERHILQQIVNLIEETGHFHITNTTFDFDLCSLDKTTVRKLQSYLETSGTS
rRNA inh HTS – reduced GFP signal of wild-type E. coli, primary screen, bacterial rRNA inhibitor project, GFP/RFP fluorescence, OD600, single point; E. coli WT GFP vs humanized-ribosome RFP mutants, 24 h; hits give low values; DMSO median 0, no signal -100; AID 720706, 2013; hit rate 1.6% among 350,000; GFP signal change (wild-type ribosome), % (no concentration beside the values);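 active = significant combined selectivity score with lowered wild-type GFP, culture density cut under 30%, mutant RFP and density less affected; inactive = any of these conditions unmet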; also: one replicate is shown; some compounds called inactive have numbers as strong as hits
FGF22 binding – binders of human FGF22 protein, primary screen, FGF22 synaptogenesis inhibitor project, biophysical, thermal shift, single point | recombinant FGF22 thermal shift, SYPRO orange fluorescence; percent of sucrose octasulfate shift, DMSO zero | calls only at 9.99 µM | hit rate 1.5% among 340,000 | AID 651658, 2012;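 active = melting point raised past a set limit in the mean and every replicate; three in four hits are not shown here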
Target sequence (Q9HCT0 whole entry, looked up): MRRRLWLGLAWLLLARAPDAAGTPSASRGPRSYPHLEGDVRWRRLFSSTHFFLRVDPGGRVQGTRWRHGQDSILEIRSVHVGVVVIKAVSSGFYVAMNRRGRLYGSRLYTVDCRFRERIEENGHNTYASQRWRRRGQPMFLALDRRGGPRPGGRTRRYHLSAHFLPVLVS
UCH37 DUB inh – inhibitors of human UCH37 deubiquitinase, primary screen, biochemical, Ub-AMC cleavage, fluorescence; Ubiquitin carboxyl-terminal hydrolase isozyme L5 (Homo sapiens), Q9Y5K5; purified proteasome/UCH37; inhibition, % (test concentration not listed); hit rate 0.33% among 330,000; AID 588478, 2011;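 active = mean of two replicates above 20%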;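 also: 0% = compound-free wells with enzyme and 100% = wells lacking proteasome; stock transfer was 100 nL into about 20 µL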
Target sequence (Q9Y5K5 whole entry, looked up): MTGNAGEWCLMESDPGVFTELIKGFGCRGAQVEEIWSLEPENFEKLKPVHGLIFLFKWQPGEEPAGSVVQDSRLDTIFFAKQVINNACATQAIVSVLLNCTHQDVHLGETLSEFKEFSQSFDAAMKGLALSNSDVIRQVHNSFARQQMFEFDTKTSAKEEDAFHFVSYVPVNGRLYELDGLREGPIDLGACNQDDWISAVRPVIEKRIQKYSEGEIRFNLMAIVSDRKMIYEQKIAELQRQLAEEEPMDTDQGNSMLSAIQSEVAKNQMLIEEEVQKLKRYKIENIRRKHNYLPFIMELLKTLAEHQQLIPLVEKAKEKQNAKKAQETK
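system = Proteasome-associated human UCH37 deubiquitinase | amount = 0.15 nM proteasome as dispensed | medium = pH 7.4 Tris-HCl (50 mM) with ovalbumin, ATP-MgCl2, DTT | incubation = 30 min preincubation with enzyme, 25 min cleavage at room temperature | detection = AMC fluorescence 355/460 nm | read-out basis = percent inhibition | controls = no-proteasome and no-compound wells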
T cruzi inh – inhibitors of intracellular T. cruzi growth, primary screen, luminescence, NIH3T3 host cells. T. cruzi beta-gal in NIH3T3, 90 h. inhibition, % (concentration not given with the values). hit rate 1.4% among 300,000. AID 1885, 2009;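 active = mean inhibition across valid replicates above about 55%, limit read from the data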;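 also: signal also drops with host cell toxicity which is not excluded here; 0% = plate median of DMSO wells and 100% = zero luminescence signal; higher percent means less beta-gal luminescence so fewer parasites; stock transfer was 50 nL into about 50 µL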
Beta cell apopt – inhibitors of cytokine-induced beta cell apoptosis, primary screen, luminescence; INS-1E cytokine-induced death, ATP luminescence, 48 h; percent of positive-control rescue, neutral wells zero; protection from apoptosis, % (concentration not given with the values); hit rate 0.8% among 300,000;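 active = all replicates at 75% or more, or half of them and the mean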;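 also: 0% = cytokine-treated negative control wells and 100% = positive control rescue; higher means more ATP so stronger rescue from cytokine killing; wells of about 40 µL received 100 nL stock; the first replicate is given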
rRNA inh HTS OD600 – further read-out of rRNA inh HTS, marked with its call; OD600 change, %; measured here: OD600 growth;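 optical density of the mix in the first replicate; 0 = DMSO median and -100 = no signal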
rRNA inh HTS RFP – further read-out of rRNA inh HTS, marked with its call; RFP signal change, %; measured here: RFP humanized mutant strains;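 first replicate; 0 = DMSO median and -100 = no signal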
Numbers without * were called inactive; i = inactive; . = not tested or not shown; & = joins results of further samples. This is a subset; rates above refer to the full screens.

canonical_smiles,rRNA inh HTS,T cruzi inh,rRNA inh HTS OD600,UCH37 DUB inh,rRNA inh HTS RFP,Bfl-1 A1 inh,Ecoli growth,AF4-AF9 inh,Beta cell apopt,FGF22 binding
CC(C)OCCCNc1nc2c(c(=O)n(Cc3ccccc3F)c(=O)n2C)n1C,.,2,.,6.1,.,0.7,0.73,.,2,.
Cc1ccc2cccc(NC3OC(=O)c4ccccc43)c2n1 (centres undefined),.,4,.,6.9,.,-0.9,0.68,.,19,.
Cc1ccc(NC(=O)CC(C)N2CCCC2)cc1 (centres undefined),.,17,.,1.3,.,-0.7,0.71,.,-5,.
COc1cccc(C(=O)Nc2cc(C)on2)c1OC,0,-6,-1,2.4,-0.1,0.4,0.67,-0.8,-7,i
S=c1[nH]nc(-c2ccco2)n1/N=C/c1ccccc1Cl,10,-5,4,.,1.4,0.1,.,-6.3,-4,i
Cc1nn(-c2cccc(C(=O)O)c2)c(C)c1Oc1ccccc1O,.,-7,.,4.5,.,1.0,0.71,.,-11,.
Cc1ccc(-c2cc(C(=O)NC3=NCCS3)c3ccccc3n2)cc1C,.,-11,.,-10,.,-1.6,0.71,.,-6,.
CCOc1ccc([C@@H]2CC=C(C(=O)O)[C@H](c3cccc(Cl)c3)N2S(=O)(=O)c2ccc(C)cc2)cc1,-31,.,-42,1.2,8.5,0.7,.,2.1,-8,i
O=C1[C@H]2[C@@H](C3CC3)N3C(=O)CN(Cc4ccccn4)C(=O)[C@@]3(Cc3ccccc3)[C@H]2C(=O)N1c1ccccc1,20,-6,13,-1.8,0.3,0.4,.,-1.5,-7,i
O=C(NCC1CCCCC1)c1cccc(Br)c1,-9,0,-5,5.1,1.3,0.0,0.7,-0.1,3,i
CCCC(C)C(=O)Nc1ccc(S(=O)(=O)Nc2nccs2)cc1 (centres undefined),8,7,4,-1.0,-3.5,-0.7,0.69,-1.8,-5,i
Cc1cccc(NC(=S)N(CCN(C)C)C(C)c2ccco2)c1 (centres undefined),.,-40,.,4.9,.,0.5,0.71,.,-6,.
O=C(O)c1cn(Cc2ccccn2)c(=O)c2ccccc12,-2,-3,5,-2.4,-1.2,0.1,0.65,-1.4,-10,i
Cc1cc(N2CCOCC2)ccc1/C=C1/SC(=O)NC1=O,-5,-5,-9,16,-1.6,-0.3,0.68,-6.4,9,i
Cc1ccc(NC(=O)COCC(=O)Nc2ccc(F)cc2)cc1,2,-3,-8,5.6,-6.3,0.0,0.69,-1.4,-5,i
Cc1cc(C)c(S(=O)(=O)c2ccc(C(C)(C)C)cc2)c(Cl)n1,-23,37,-40,0.8,-2.6,1.4,0.67,-4.3,-6,i
Cc1cc(C)cc(NC(=O)CN2C(=O)C3CC=CCC3C2=O)c1 (centres undefined),2,.,-2,-0.2,-0.4,0.4,0.64,-8.1,0,i
C=CCN1C(=O)C(C)(C)N(C(C)=O)c2ccccc21,1,-5,2,-0.1,2.4,0.5,0.63,-1.6,-7,i
O=C(NCCCN1CCCC1=O)c1ccc([N+](=O)[O-])s1,0,60*,-8,6.7,-4.0,0.1,0.66,-16,-1,i
O=C(NC(=O)N1CCN(c2ccc([N+](=O)[O-])cn2)CC1)c1ccccc1F,15,-5,19,12,9.7,-0.3,0.65,1.3,1,i
CCN(CC)S(=O)(=O)c1ccc(N2CCOCC2)c(NS(=O)(=O)c2ccc(C)c(C)c2)c1,.,5,.,2.2,.,0.4,0.69,.,0,.
O=C(Cn1c(=O)sc2ccccc21)Nc1nc2c(s1)CCCC2,.,3,.,6.0,.,1.1,0.71,.,-4,.
CN(C)C(=O)CCc1ccc2c3c([nH]c2c1)[C@]1(CCc2ccccc2)[C@@H](C(=O)N2CCCCC2)C[C@H](CC(=O)NCc2cccc(C(F)(F)F)c2)C(=O)N1CC3,3,.,10,1.6,-2.4,.,0.74,1.0,.,i
CCOC(=O)CSc1nc2c(c(=O)[nH]c(=O)n2C)n1Cc1ccccc1,24,-5,18,0.4,1.2,0.2,0.7,-3.3,-5,i
O=C(NN=C1CCCC1)c1ccccc1[N+](=O)[O-],26,2,6,-1.1,-0.9,0.3,0.69,2.1,-7,.
Cc1ccc(S(=O)(=O)N2CCCCC2)cc1NC(=O)CNc1ccccc1N1CCCC1=O,.,.,.,-1.3,.,1.1,0.67,2.3,-1,i
CCCCN(C(=O)c1cc2ccccc2o1)c1c(N)n(CC(C)C)c(=O)[nH]c1=O,.,-6,.,-0.1,.,0.0,0.64,.,-1,.
Cc1ccc(C2=NN(CCC#N)C(=O)CO2)cc1,9,-8,5,2.1,-2.4,0.3,0.68,-2.3,-1,i
COc1ccc(Nc2nc(NCc3ccco3)nc(N3CCOCC3)n2)cc1,-6,28,-5,3.8,-6.9,0.2,0.69,-19,8,i
NS(=O)(=O)c1ccc(NNC(=O)c2ccccc2)cc1,10,3,6,-3.2,0.3,-0.7,0.63,-1.6,0,i
CCCn1c(N)c(N(CCOC)C(=O)COC(=O)CSc2cc(C)c3ccccc3n2)c(=O)[nH]c1=O,-8,-3,-7,4.2,-3.0,-0.2,0.7,-2.2,-5,i
COc1ccccc1N1CCN(CC(=O)N2CCCC2)CC1,14,-14,4,0.9,-0.5,-0.6,0.65,0.2,-6,i
O=C(NCCc1ccccc1F)C1CC(O)CN1C(=O)Nc1ccccc1 (centres undefined),-7,-6,-3,3.3,-0.4,.,0.67,-2.8,.,i
O=C1c2ccccc2C(=O)N1CCCCN(C(=O)c1ccc(Cl)s1)c1ccc(Cl)cc1,.,22,.,2.3,.,-0.1,0.79,.,2,.
Cc1noc(C)c1NC(=O)N(C)C[C@H]1Oc2c(NC(=O)Nc3ccc4c(c3)OCO4)cccc2C(=O)N([C@H](C)CO)C[C@@H]1C,2&-10,.,-2&-16,1.7,-2.4&0.5,1.1,.,-2.2,-10,i
CC(O)CNCCOc1ccccc1-c1ccccc1 (centres undefined),11,2,-6,1.5,0.0,0.0,0.68,-0.8,5,i
COc1ccccc1N1CCN(C2CCCN(C(=O)CCc3cnn(C)c3)C2)CC1 (centres undefined),13,5,18,0.7,-1.9,1.5,0.73,-0.5,2,i
COc1ccc2oc(=Nc3ccc(C(=O)O)cc3)c(C(=O)NCc3ccco3)cc2c1,.,18,.,.,.,-1.2,.,0.2,-4,.
CCOC(=O)c1ccc(NC(=O)Nc2ccon2)cc1,-3,30,-1,3.1,-2.2,-4.2,0.59,-8.2,23,i
CCOC(=O)CSC1=C(C#N)C(c2ccc(Cl)cc2)CC(=O)N1 (centres undefined),-2,3,-23,2.5,-1.0,-0.1,0.74,-1.9,0,i
COc1ccc(Cl)cc1S(=O)(=O)N1CCCC(C(=O)N2CCOCC2)C1 (centres undefined),0,13,-2,.,2.3,1.0,.,-1.1,8,i
O=C(O)C1CC=CCC1C(=O)NCc1ccc2c(c1)OCO2 (centres undefined),.,-7,.,4.3,.,0.0,0.71,.,-2,.
COc1ccccc1C(c1nnnn1CCc1ccccc1)N1CCCCCC1 (centres undefined),.,31,.,1.3,.,-1.0,0.75,.,23,.
COCC(C)NC(=O)c1cc(-c2ccccc2OC)on1 (centres undefined),.,-12,.,1.9,.,1.4,0.71,.,-6,.
Cn1c(=O)cc(OCCCC(=O)NCCC2=CCCCC2)c2ccccc21,3,13,-2,4.7,-2.3,-0.7,0.69,-0.6,0,i
Cc1ccn2c(Nc3ccc4c(c3)OCO4)c(-c3ccccn3)nc2c1,25,38,7,1.5,4.2,0.2,0.43*,32*,0,i
CC(C)(C)n1nc2c(c1NC(=O)Cc1ccc([N+](=O)[O-])cc1)CS(=O)(=O)C2,3,3,3,2.5,-1.1,-1.4,0.68,1.9,-9,i
COc1cccc(-c2cc(C(=O)N3CCN(C(c4ccccc4)c4ccccc4)CC3)no2)c1,.,68*,.,3.6,.,-0.1,0.67,.,40,.

Single entries from the results shown.
rRNA inh HTS OD600 with `CC(C)(C)n1nc2c(c1NC(=O)Cc1ccc([N+](=O)[O-])cc1)CS(=O)(=O)C2` = 3
Bfl-1 A1 inh with `COc1cccc(-c2cc(C(=O)N3CCN(C(c4ccccc4)c4ccccc4)CC3)no2)c1` = -0.1

More structures follow:
canonical_smiles,rRNA inh HTS,T cruzi inh,rRNA inh HTS OD600,UCH37 DUB inh,rRNA inh HTS RFP,Bfl-1 A1 inh,Ecoli growth,AF4-AF9 inh,Beta cell apopt,FGF22 binding
CCNc1nnc(SCC(=O)NC2CCCCCC2)s1,7,.,5,4.8,0.4,.,0.66,-0.8,.,.
C[C@H]1CN([C@@H](C)CO)C(=O)c2cc(NC(=O)Nc3cccc4ccccc34)ccc2O[C@@H]1CN(C)Cc1ccc(-c2ccccc2)cc1,2&16,.,8&8,1.2,3.4&2.4,0.5,.,3.7&2.3,17,i
CC1=C(C(=O)Nc2ccccn2)C(c2ccc3c(c2)OCO3)C2=C(CC(C)(C)CC2=O)N1 (centres undefined),6,-3,4,-103,0.9,-0.2,0.67,-6.5,-22,i
COc1ccc(C(=O)C(Cc2cc(C(C)=O)ccc2OC)N2CCCC2)cc1 (centres undefined),-2,-1,3,-7.9,-0.6,0.0,0.68,1.4,-4,i
Cc1ccccc1COc1cccc(/C=N/NC(=O)c2nnn(-c3nonc3N)c2C)c1,-3,-8,6,.,-2.9,0.7,.,1.3,10,i
CNC(=O)/C(=C\c1ccco1)NC(=O)c1ccco1,12,-3,13,3.3,5.6,0.4,0.63,0.0,-11,i
COc1ccc(-c2csc(NC(=O)c3ccccc3NS(=O)(=O)c3ccc(C)cc3)n2)cc1,-32,3,-37,-17,-6.1,-0.9,0.69,-17,44,.
O=C(NCCN1CCOCC1)c1cc(-c2ccc(F)cc2)nc2ccccc12,1,-17,-3,-13,-1.2,0.1,0.67,1.1,-3,i
Cc1ccc(C(=O)Nc2ccc3c(c2)CCC3)o1,.,7,.,1.3,.,-7.6,0.65,.,8,.
CC/C(=N\NC(=O)c1ccc(Br)cc1)c1ccccc1,5,5,-22,.,1.3,-0.7,.,-13,1,i
CCOc1ccc(-c2cccc(NC(=O)c3cccs3)c2)nn1,-6,-11,-8,3.8,-0.2,0.7,0.67,-2.1,7,i
COc1ccc(S(N)(=O)=O)cc1C(=O)OCC(=O)N1CC(=O)Nc2ccccc21,6,.,2,1.9,-0.9,.,0.7,1.1,.,i
Cc1ccc(S(=O)(=O)N2CCC(C(=O)NCCCN3CCCC3=O)CC2)cc1,8,.,5,3.5,0.4,1.3,0.72,-1.5,4,i
